Screening results as filed in PubChem.
BRCT PPI red – qHTS Assay for Inhibitors of BRCT-Phosphoprotein Interaction (Red Fluorophore); Breast cancer type 1 susceptibility protein (Homo sapiens), P38398; 0.03% of 75,000 active; BRCT-phosphopeptide binding, red fluorescence polarization; Potency, µM (doses to about 76.9 µM), for inactives: at the top dose activity change, negative = inhibition, most hits filed as inhibitors; also: % is scaled to controls: 0 for no effect and ±100 for the full control effect
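Rhodamine-labelled pBACH1 10-mer (100 nM) bound to BRCT domain (100 nM) at pH 7.3; compounds incubated 12 min room temperature, polarization read. Free peptide defines full inhibition; unlabelled decapeptide titrated as control.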
BRCT PPI green – qHTS Assay for Inhibitors of BRCT-Phosphoprotein Interaction (Green Fluorophore) | BRCA1 BRCT-phosphopeptide binding, green fluorescence polarization | Potency, µM (series often up to 76.9 µM), without a hit: at the highest dose activity change, negative = inhibition, hits mostly inhibitors | 0.05% of 75,000 active;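 also: potency is read from the fitted curve at half-maximal effect; plate controls were peptide without protein for full effect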
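Compounds were incubated for 12 min at room temperature with a complex of 100 nM fluorescein-tagged pBACH1 decapeptide and 250 nM His-tagged BRCT protein. Buffer was phosphate pH 7.3 with EDTA, DTT and Tween 20. Disruption of binding lowers the polarization signal.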
USP2a inhib – qHTS Assay for Inhibitors of Ubiquitin-specific Protease USP2a | Potency, µM (doses to about 38.3 µM), for inactives: at the highest dose activity change, negative = inhibition, actives largely listed as inhibitors | Ubiquitin carboxyl-terminal hydrolase 2 (Homo sapiens), O75604 | AID 927, 2007 | 0.1% of 60,000 active | USP2a enzymatic assay, qHTS inhibition;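 also: potency is read from the fitted curve at half-maximal effect; nearly all actives have a fitted effect of over 60% in size; plate controls were DMSO for no effect and NEM full inhibition control for full effect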
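Coupled readout: USP2-cleaved Ub-PLA2 (20nM final) turns over NBD C6-HPC (20uM final), Ex 460nm/Em 535nm after 2.5 h, time-zero read flagging artifacts. Enzyme (20nM final, pH 8.0 Tris) given 30 min RT with compound first; NEM defines full inhibition.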
Texas Red fluor – qHTS Assay for Spectroscopic Profiling in Texas Red Spectral Region; max dye-equivalent concentration, M; Compound fluorescence, Texas Red channel, 547/618 nm; active compounds read high; AID 587, 2007; 0.06% of 59,000 active; in the data active = max dye-equivalent concentration above about 10 nM; inconclusive = between about 1.1 nM and that limit
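Compound titrations in 100 mM Tris pH 8.0 were incubated 15 min at room temperature and read at 547 nm excitation / 618 nm emission. Texas Red six-point standard curve on each plate converted fluorescence to dye-equivalent concentration.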
Rhodamine fluor – qHTS Assay for Spectroscopic Profiling in Rhodamine Spectral Region | Rhodamine-region fluorescence, 547/598 nm, Tris buffer; active compounds read high | max dye-equivalent concentration, M | 0.05% of 59,000 active; in the data active = max dye-equivalent concentration above about 11 nM; inconclusive = between about 1.1 nM and that limit
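qHTS spectral profiling of compounds without any target or enzyme present, in pH 8.0 Tris buffer; plates were read after a 15-minute room-temperature incubation using the rhodamine-region filter set.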
Fluorescein autfl – qHTS Assay for Spectroscopic Profiling in Fluorescein Spectral Region. Compound autofluorescence, 480/540 nm, fluorescein-equivalent; active compounds read high. max fluorescein-equivalent concentration, M. 0.91% of 59,000 active; in the data active = max fluorescein-equivalent concentration above about 10 nM; inconclusive = between about 1.1 nM and that limit
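Normalized response (dye-equivalent concentration) derives from comparing each well's 540 nm emission, under 480 nm excitation, with plate-resident fluorescein standards. Compounds were held in 100 mM Tris, pH 8.0, for 15 min at room temperature.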
HEK293 cAMP cs – qHTS Assay for Agonists of the Thyroid Stimulating Hormone Receptor: Activators of Intracellular cAMP Concentrations in Parental HEK 293 | parental HEK293 CNG cAMP sensor, membrane potential fluorescence | Potency, µM (doses to about 57.1 µM), for the others: at the highest dose activation, hits mostly activators | 2.5% of 73,000 active; also: potency is read from the fitted curve at half-maximal effect; % of control where 0% means no effect; nearly all actives have a fitted effect of over 55% in size
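Parental HEK 293 cells stably expressing a cAMP-gated CNG channel were loaded with membrane potential dye containing 100 uM RO 20-1724 for 60 min. Compound added for 30 min; depolarization read as fluorescence intensity at 590 nm.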
* hit, by the source's call; i = inactive; ? = inconclusive; [ ] = remark or other dose. Unless noted, calls follow the shape of the dose curve; as a rule, active = well fitted curve in the direction sought with a large enough effect; inconclusive = small, poorly fitted or top-dose-only effect, or another doubt; inactive = no such curve, though single readings can be large; an effect the other way counts as inactive or inconclusive. Some of the compounds tested; rates above refer to the full screens.

Below each compound: BRCT PPI red | BRCT PPI green | USP2a inhib | Texas Red fluor | Rhodamine fluor | Fluorescein autfl | HEK293 cAMP cs
Cc1ccc(S(=O)(=O)c2c(N)n(NC(=O)C3CC3)c3nc4ccccc4nc23)cc1
  0.3% | 1.5% | 17% | i | i | i | -1%
N#CCCn1c(=O)c(-c2ccccc2)nc2cnc(OCc3ccccc3)nc21
  -1.5% | -3.0% | 110%[activator] | i | i | i | 17%
CCOc1ccc2nc(NCCCNS(=O)(=O)c3ccccc3)c(C#N)cc2c1
  0.0% | -1.4% | 2% | i | i | i | 27%
COc1ccc2nc(SCC(=O)N(C)C3CCCCC3)c(C#N)cc2c1
  1.3% | 4.4% | 27% | ? | i | ? | 25µM*
COc1cccc(Nc2ncc3nc(-c4cc(F)cc(F)c4)c(=O)n(C4CC4)c3n2)c1
  -2.7% | 5.0% | 42%[activator] | i | i | ? | 9%
CC(C)OC(=O)CC(=O)CSc1nc2c(cc1C#N)CCC2
  0.7% | 1.4% | 118%[activator] | i | i | i | ?
O=c1c(-c2cccs2)nc2cnc(N3CCNCC3)nc2n1Cc1cccs1
  -0.4% | 1.9% | 73%[activator] | i | i | i | -13%
Cn1c(-c2ccc(C(=O)c3ccccc3)s2)nc2ccccc21
  -1.2% | -3.4% | -7% | i | i | i | 20%
CCOC(=O)c1cc(-c2cc3ccccc3o2)nc2c1c(=O)[nH]c(=O)n2CCOC
  0.0% | -1.0% | 14% | ? | i | ? | -4%
CC1CN(C(=O)c2cc3c(=O)n4ccccc4nc3s2)CC(C)O1 (stereo not given)
  1.2% | -1.4% | -3% | i | i | i | 10%
COc1ccc2oc(=O)c(C(=O)NCC3CCCO3)cc2c1 (stereo not given)
  -0.8% | -0.6% | -5% | i | i | i | 11%
O=c1c(-c2cccs2)nc2cnc(N3CCNCC3)nc2n1-c1ccccc1
  0.5% | -12% | 225%[activator] | i | i | ? | -5%
O=c1c(-c2ccc(F)cc2)nc2cnc(N3CCNCC3)nc2n1C1CC1
  0.2% | 0.9% | 37%[activator] | i | i | i | ?
c1coc(-c2nc3nc4ccccc4nc3n2CC2CCCO2)c1 (stereo not given)
  -0.2% | 17% | 34%[activator] | i | i | ? | 21%
Cc1ccc2nc3ccc(N4CCCC4)nn3c(=O)c2c1
  1.2% | -3.7% | -2% | i | i | ? | 1%
COc1cc([C@H]2c3cc4c(cc3[C@@H](O[C@H]3O[C@H]5CO[C@@H](C)O[C@H]5[C@@H](O)[C@@H]3O)[C@@H]3COC(=O)[C@H]23)OCO4)cc(OC)c1O
  0.3%[34.4 µM] | -1.9%[34.4 µM] | -4%[17.1 µM] | i | i | ? | 2%[25.6 µM]

As entered above.
USP2a inhib, Cc1ccc2nc3ccc(N4CCCC4)nn3c(=O)c2c1 reads -2%
BRCT PPI red, O=c1c(-c2cccs2)nc2cnc(N3CCNCC3)nc2n1-c1ccccc1 reads 0.5%
BRCT PPI green, O=c1c(-c2ccc(F)cc2)nc2cnc(N3CCNCC3)nc2n1C1CC1 reads 0.9%
BRCT PPI red, COc1cccc(Nc2ncc3nc(-c4cc(F)cc(F)c4)c(=O)n(C4CC4)c3n2)c1 reads -2.7%
USP2a inhib, N#CCCn1c(=O)c(-c2ccccc2)nc2cnc(OCc3ccccc3)nc21 reads 110%[activator]
USP2a inhib, COc1ccc2oc(=O)c(C(=O)NCC3CCCO3)cc2c1 (stereo not given) reads -5%

Structural class: those above with an aryl thioether with sulfur outside any ring (two)
Below each compound: BRCT PPI red | BRCT PPI green | USP2a inhib | Texas Red fluor | Rhodamine fluor | Fluorescein autfl | HEK293 cAMP cs
COc1ccc2nc(SCC(=O)N(C)C3CCCCC3)c(C#N)cc2c1
  1.3% | 4.4% | 27% | ? | i | ? | 25µM*
CC(C)OC(=O)CC(=O)CSc1nc2c(cc1C#N)CCC2
  0.7% | 1.4% | 118%[activator] | i | i | i | ?

One compound at a time, as listed above. Screens in order: BRCT PPI red, BRCT PPI green, USP2a inhib, Texas Red fluor, Rhodamine fluor, Fluorescein autfl, HEK293 cAMP cs
Cc1ccc(S(=O)(=O)c2c(N)n(NC(=O)C3CC3)c3nc4ccccc4nc23)cc1 is entered as 0.3%, 1.5%, 17%, i, i, i, -1%
CC(C)OC(=O)CC(=O)CSc1nc2c(cc1C#N)CCC2 is entered as 0.7%, 1.4%, 118%[activator], i, i, i, ?
